Compound activity (PubChem BioAssay)
MT1-MMP reporter = inhibitors of MT1-MMP promoter transcription, cell-based, luciferase reporter, luminescence (AID 618); 87,000 compounds, 0.62% hits; MT1-MMP promoter luciferase reporter cells, luminescence; calls from a first round at 10 µM; hits with a dose series show EC50 in µM;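 active = over half of the reporter light lost at 10 µM or EC50 under 50 µM; inactive = the rest and hits that failed the dose series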;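 also: actives suppress MT1-MMP promoter-driven transcription so potencies describe inhibitors; HT1080 fibrosarcoma cells; overnight exposure; toxic or luciferase-blocking compounds were not removed from the actives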
Hsc70 = Hsc70 inhibitors, probe displacement, primary screen, biochemical, fluorescence polarization (AID 568); Hsc70 fluorescence polarization, probe displacement; higher % means a stronger effect; strong numbers were not always called active; displacement, % at 20 µM; hits with a dose series show IC50 in µM; 83,000 tested, under 10 active;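 active = displacement above 50% without optical interference and an IC50 on retest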;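 also: ATPase domain with a fluorescein-tagged ATP probe; 0% = vehicle and 100% = excess ADP; read after one hour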
WNV NS2B-NS3 inh = inhibitors of West Nile virus NS2B-NS3 protease | z-score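 (tested at a level between 10 and 100 µM)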 | WNV NS2B-NS3 protease, fluorogenic substrate Ex360/Em465; active compounds read low | 65,000 compounds, 0.18% hits;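 active = z-score at -3 or under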;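 also: score is relative to mean and spread of the compound wells of a plate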
Target sequence (P06935 1371-1501 limits assumed): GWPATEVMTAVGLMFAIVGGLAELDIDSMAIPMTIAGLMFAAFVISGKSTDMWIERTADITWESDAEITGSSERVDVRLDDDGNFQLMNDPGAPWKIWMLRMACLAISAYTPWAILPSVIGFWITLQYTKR
Target sequence (P06935 1502-1679 limits assumed): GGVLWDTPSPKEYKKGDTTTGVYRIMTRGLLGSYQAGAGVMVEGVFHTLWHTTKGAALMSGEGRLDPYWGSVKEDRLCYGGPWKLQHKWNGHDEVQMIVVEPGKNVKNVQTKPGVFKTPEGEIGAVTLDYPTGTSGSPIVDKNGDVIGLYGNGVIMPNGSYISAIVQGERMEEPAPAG
* hit, by the source's call; i = inactive; / = no result given.

Values in the order – MT1-MMP reporter, Hsc70, WNV NS2B-NS3 inh
- CCn1c(SCC(=O)NCc2ccc(F)cc2)nc2c(c1=O)SC(C)C2 (stereo unspecified)
 : i, 2.1%, 0.56
- COCCn1c(=NC(=O)CSCC(=O)NC2CCCCC2)sc2cc(OC)ccc21
 : i, 6.2%, 0.1
- CCN1C(=O)CC(C(=O)O)SC1=Nc1ccc(OC)cc1 (stereo unspecified)
 : i, -4.6%, -0.05
- CNc1ccccc1C(C)(C)c1cc(-c2ccco2)n[nH]1
 : i, 2.2%, -0.49
- O=C(CN1C(=O)CSc2ncccc21)N1CCOCC1
 : i, -0.9%, -1.7
- CCOC(=O)c1c(C)n(C(=O)c2ccco2)c(=O)n1C(=O)c1ccco1
 : i, -7.0%, -0.73
- COc1cc(/C=N/n2c(SC)nnc(C(C)(C)C)c2=O)ccc1O
 : i, 3.3%, -0.29
- CCC(=O)NC(Nc1cccc(C)n1)(C(F)(F)F)C(F)(F)F
 : i, -1.2%, 0.42
- Cc1ccc(CNC(=O)CCc2c(C)nc3ncnn3c2C)cc1
 : i, 7.8%, -0.53
- CC(NC(=O)C1CCCCC1)C(=O)NC1=NCCS1 (stereo unspecified)
 : i, 3.2%, /
- CCOC(=O)c1cnc(-n2nc(C)cc2C)nc1NC(C)c1ccccc1 (stereo unspecified)
 : i, -2.5%, -0.3
- COc1cc2c(cc1OC)C1C/C(=N\O)C(CC(C)C)CN1CC2 (stereo unspecified)
 : i, 0.3%, /
- O=C(O)c1ccc(NC(=O)C2C3CCC(C3)C2C(=O)O)cc1 (stereo unspecified)
 : i, -0.4%, 0.45
- c1ccc(Cc2nc(-c3ccccn3)no2)cc1
 : i, -3.6%, 1.6
- CCOc1ccc(-c2nnn(CC(=O)NCc3ccc4c(c3)OCO4)n2)cc1
 : i, 3.7%, /
- CCC1SC2=NCCN2C1(O)c1ccc(Cl)cc1 (stereo unspecified)
 : i, -7.2%, -0.56
- COC(=O)CN1C(=O)C(O)(CC(=O)c2ccc(Cl)cc2)c2ccccc21 (stereo unspecified)
 : i, 4.7%, -0.0054
- COc1cc(C(=O)N2CCN(C(=O)COc3ccc4ccccc4c3)CC2)cc(OC)c1OC
 : i, -0.7%, -0.38
- CCCC(NS(=O)(=O)c1ccc(C)cc1)C(=O)O (stereo unspecified)
 : i, 0.5%, /
- COc1ccc(N2CCN(C(=O)COc3ccc(Cl)cc3Cl)CC2)cc1
 : i, -0.4%, /
- COc1cc2[nH]c(=S)n(CCCN3CCOCC3)c(=O)c2cc1OC
 : i, 1.8%, -1.2
- COc1ccccc1N1CCN(Cc2cccc(OC)c2OC)CC1
 : i, -0.7%, 0.07
- CN1CCN(Cc2ccc(OCc3ccccc3)cc2)CC1
 : i, 0.8%, -0.47
- CN1CC(c2ccccn2)C2(SC(=S)N(Cc3ccccc3)C2=O)C12C(=O)Nc1ccccc12 (stereo unspecified)
 : i, -3.6%, /
- CCOc1ccc(C(=O)N2CCCC2)cc1
 : i, -0.6%, /
- COc1ccc(-n2c(C)cc(C(=O)COC(=O)Cn3cnc4ccccc43)c2C)cc1
 : i, -3.9%, 0.37
- O=C(Nc1c(C(=O)N2CCCCC2)cnn1-c1ccccc1)c1ccccc1
 : i, 3.0%, -0.6
- CC1CC(=O)N(CC(=O)Nc2ccc3c(c2)OCO3)c2ccccc2S1 (stereo unspecified)
 : i, -8.8%, 0.02
- CC1(C)CC(=O)C(C=NCc2ccccn2)=C(O)C1
 : i, 2.6%, 0.76
- CCOC(=O)c1cccc(NC(=O)CNC(=O)C2CCCCC2)c1
 : i, -1.8%, 2
- O=C1OCc2cc(NC(=O)C3CCCO3)ccc21 (stereo unspecified)
 : i, 1.4%, 0.47
- CC(C)(C)C1=Nn2c(nnc2-c2n[nH]c3c2CCC3)SC1
 : i, 5.9%, -0.03
- O=C(Nc1ccccc1)N(O)c1ccc(Cl)cc1
 : i, -2.2%, 0.36
- CCOC(=O)CCc1c(C)c(C#N)c2[nH]c3ccccc3n2c1=O
 : i, -2.9%, 0.15
- CCOc1ccccc1C1N(c2ccc(F)cc2)C(=O)C2CCCN21 (stereo unspecified)
 : i, 2.6%, 0.59
- COc1ccc(OC)c(S(=O)(=O)N2CCC(C(=O)N3CCc4ccccc4C3)CC2)c1
 : i, -1.6%, 0.17
- C=CCNC(=O)C1CC(=O)N(c2ccc(C)cc2)C1 (stereo unspecified)
 : i, 2.4%, 0.44
- CCCn1c(-c2cc(OC)c(OC)c(OC)c2)nc2nc3ccccc3nc21
 : i, -6.3%, /
- Cc1[nH]nc2c1C(c1ccccc1F)NC2=O (stereo unspecified)
 : i, 12%, 0.15
- COCc1nnc(NC(=O)c2ccc(S(=O)(=O)N(C)C3CCCCC3)cc2)o1
 : i, 6.7%, -0.07
- CSc1nncc(-c2ccc(F)cc2)n1
 : i, 2.0%, 0.84
- COc1ccc(COC(=O)NNC(=O)c2ccc(OC)cc2)cc1
 : i, 0.4%, /
- CCCCOc1ccc(-c2nnn(C(C)(C)C(=O)OC)n2)cc1
 : i, 3.4%, 0.96
- CC(C)(C)Sc1nc(O)cc(=O)[nH]1
 : i, 0.5%, -0.86
- O=C(CCC1CCCC1)N1CCN(C2CCCC2)CC1
 : i, -0.7%, 1.2
- O=C(COc1ccc(-c2nnc(N3CCCCC3)c3ccccc23)cc1)N1CCCCC1
 : i, 2.2%, -0.55
- COC(=O)c1sc2nc(N3CCCCC3)c3c(c2c1N)CC(C)(C)N(C)C3
 : i, -3.8%, 0.99
- Cc1cc(OCc2nn[nH]n2)c2c(-c3ccccc3)cc(=O)oc2c1
 : i, -3.5%, -1.6
- NC(N)=NS(=O)(=O)c1ccc(N)cc1
 : i, 2.0%, 0.14
- Cc1nnc(SCC(=O)NCC2CCCCC2)n(N)c1=O
 : i, 0.8%, /
- O=C(c1cc2c(s1)CCCC2)N1CCN(Cc2ccc3c(c2)OCO3)CC1
 : i, 1.4%, 0.15
- CCOc1c(Cl)cc(/C=N/O)cc1OC
 : i, -0.2%, /
- CC1CCCCC12NC(=O)N(CC(=O)c1ccc[nH]1)C2=O (stereo unspecified)
 : i, -2.4%, 0.65
- Cc1ccccc1Cc1c(C)nc2c(C(=O)N3CCN(Cc4ccc5c(c4)OCO5)CC3)cnn2c1C
 : i, 5.0%, 0.21
- CCCC(=O)Nc1nc2ccc(S(=O)(=O)N3CCCCC3)cc2s1
 : i, 4.1%, 0.42
- Cc1cccc(-c2nnc3n2N=C(c2ccccc2Br)CS3)c1
 : i, -9.9%, -0.94
- O=C(Cn1cnc2c(oc3ccccc32)c1=O)NCc1ccco1
 : i, 4.5%, -0.52
- CCOC(=O)c1ccc(S(=O)(=O)Nc2ccccc2-c2nnn(CC)n2)cc1
 : i, -0.2%, 0.67
- CC(=O)Nc1nnc(Cc2ccccc2)s1
 : i, 1.1%, 0.7
- Cc1nnc(SCCn2c(N3CCN(C)CC3)nc3c2c(=O)n(C)c(=O)n3C)s1
 : i, 3.4%, -0.17

The listing continues:
Values in the order – MT1-MMP reporter, Hsc70, WNV NS2B-NS3 inh
- CC(C)n1nnnc1SCC(=O)N1CCN(C(=O)c2ccco2)CC1
 : i, -4.3%, /
- N=C1C(c2nc3ccccc3s2)=C(O)CN1CCCO
 : i, 2.3%, 1.1
- CCCS(=O)(=O)N1CCC(C(=O)NCc2ccco2)CC1
 : i, 1.2%, 1.7
- CCCCCNC(=O)CCn1c(=O)oc2ccccc21
 : i, 5.7%, 1.2
- CCOC(=O)N1CCN(CC(O)COc2ccccc2C(C)CC)CC1 (stereo unspecified)
 : i, -2.1%, -0.97
- COC(=O)c1ccc(CSc2nnc(Nc3ccccc3OC)s2)o1
 : i, 1.7%, 0.02
- CC(C)c1ccc2oc(-c3ccc(NC(=O)c4ncn[nH]4)cc3)nc2c1
 : i, -1.8%, -0.8
- COc1ccc(C(=O)Nc2ncc3c(n2)CC(c2ccco2)CC3=O)cc1 (stereo unspecified)
 : i, -2.6%, -0.32
- COc1ccc(/C=N/n2cnc3c([nH]c4ccc(Br)cc43)c2=O)cc1CN1CCOCC1
 : i, -0.3%, /
- CCn1c(CCC(=O)Nc2cc(F)ccc2C)nc2cc(S(=O)(=O)N(C)C)ccc21
 : i, -0.9%, 1.5
- CCCc1ccc(S(=O)(=O)NCCc2ccncc2)cc1
 : i, 114%, 0.17
- COc1ccc(N2CCN(C(=O)CN(c3cccc(Br)c3)S(C)(=O)=O)CC2)cc1
 : i, 3.9%, -0.66
- CCCCCOC(=O)c1ccccc1C(=O)O
 : i, -0.3%, -1.5
- CCCCN(CC)Cc1ccc(CNC(=O)Nc2ccc(OC)cc2OC)o1
 : i, 0.9%, -0.93
- COC(=O)c1ccccc1NC(=O)COc1ccccc1
 : i, 4.5%, 0.5
- COc1ccc(CC(=O)N2CCN(c3ccccn3)CC2)cc1
 : i, -0.7%, -0.27
- CCCN(CCO)Cc1ccc2ccccc2c1
 : i, -3.6%, /
- CCCC(=O)C1C(=O)CC(C)(C)C(c2cc(C)no2)C1=O (stereo unspecified)
 : i, 0.9%, -0.6
- CC(C)C(C(=O)Nc1nccs1)c1ccccc1 (stereo unspecified)
 : i, -1.0%, -0.49
- CCn1c(=N)n(CC(=O)c2cccc(OC)c2)c2ccccc21
 : i, -3.0%, 0.52
- CCCCc1nnc(NC(=O)C(C)Sc2nc(N)cc(=O)[nH]2)s1 (stereo unspecified)
 : i, -1.5%, /
- COc1ccc(N2CSC3=C(C#N)C(c4cccs4)CC(=O)N3C2)cc1 (stereo unspecified)
 : i, 0.4%, 0.1
- CCCCCOc1ccc(CSc2ncn[nH]2)cc1
 : i, 6.0%, /
- CCN(CC)S(=O)(=O)c1ccc(Cl)c(C(=O)NCC2CCCO2)c1 (stereo unspecified)
 : i, -0.7%, -0.95
- COc1ccc(CSc2nnc(C)n2N)cc1Br
 : i, -0.8%, -0.73
- CCn1c(=O)cc(OCC(=O)N2CCN(c3cccc(C(F)(F)F)c3)CC2)c2ccccc21
 : i, -4.6%, 2.4
- O=C(CCCc1nc(-c2ccccc2Cl)no1)NCc1cccnc1
 : i, -2.3%, -0.07
- COCCNC(=O)Cn1cc(C(=O)c2cccs2)c2ccccc21
 : i, -0.6%, /
- Cc1ccc(S(=O)(=O)N[C@@H](CC(C)C)C(=O)NCc2ccco2)cc1
 : i, 5.1%, -0.41
- CSC(=NC1CCCCC1)NS(=O)(=O)c1ccccc1
 : i, 2.0%, 2.9

Sorted by length of the SMILES (largest number first): some entries from above.
Values in the order – MT1-MMP reporter, Hsc70, WNV NS2B-NS3 inh
- COc1ccc(C(=O)Nc2ncc3c(n2)CC(c2ccco2)CC3=O)cc1 (stereo unspecified)
 : i, -2.6%, -0.32
- O=C(CCCc1nc(-c2ccccc2Cl)no1)NCc1cccnc1
 : i, -2.3%, -0.07
- COc1ccc(CC(=O)N2CCN(c3ccccn3)CC2)cc1
 : i, -0.7%, -0.27

Next results follow:
Values in the order – MT1-MMP reporter, Hsc70, WNV NS2B-NS3 inh
- CSc1nc(N)nc(SCC(=O)CC(=O)OC(C)C)c1C#N
 : i, -4.9%, 0.22
- CC(=O)/C=C(\C)NCCNc1c(F)c(F)c(CO)c(F)c1F
 : i, 0.8%, -1.1
- CCn1c(SCc2nc3ccccc3[nH]2)nnc1-c1ccc(OC)cc1
 : i, 2.7%, /
- CN(C)C(=O)c1ccccc1-c1ccccc1
 : i, 0.0%, 0.95
- CCOc1cc(C2CC(=O)NC3=C2C(=O)C(C(=O)OC)C(C)C3)cc(Br)c1O (stereo unspecified)
 : i, -4.7%, -1.5
- C=CCN1CCN(C(c2ccccc2)c2nnnn2CCC(C)C)CC1 (stereo unspecified)
 : i, -2.3%, 1.5
- COc1cccc(CNC(=O)C2CCCN(c3nn4c(=O)cc(C)nc4s3)C2)c1 (stereo unspecified)
 : i, -2.7%, -0.72
- COc1cccc(CN(CC2CCCO2)S(=O)(=O)c2ccc(S(=O)(=O)N(C)C)cc2)c1 (stereo unspecified)
 : i, 0.6%, /
- O=C(CSc1nnc(CN2CCOCC2)n1-c1ccc(Cl)cc1)Nc1cc(Cl)ccc1O
 : i, -15%, 0.46
- CCN1C(=O)c2cccc3cccc1c23
 : i, 1.4%, -2.4
- Cc1ccc(/C(O)=C2/C(=O)C(=O)N(CCN3CCOCC3)C2c2cccs2)cc1 (stereo unspecified)
 : i, -0.5%, /
- Cc1ccc(C)c(NC(=O)C2CC(Cl)=CCC2C(=O)O)c1 (stereo unspecified)
 : i, -1.3%, 0.75
- COC(=O)Cn1c(=NC(=O)CSC(C)=O)sc2ccccc21
 : i, 0.2%, -0.56
- CCn1c(=O)n(CC(=O)N2CC(C)CC(C)C2)c(=O)c2ccccc21 (stereo unspecified)
 : i, -0.2%, /
- Cc1cc(C(=O)OCC(=O)N2CCOCC2)c2ccccc2n1
 : i, 1.6%, -0.47
- CC(=O)c1cnc2cc(-c3ccc(C)cc3)nn2c1C
 : i, 1.1%, /
- COC(=O)COC(=O)c1ccc(O)cc1
 : i, -0.3%, 2.3
- CCCCn1c(NCc2ccccn2)nc2ccccc21
 : i, -8.3%, 1.9
- O=C(COc1cnc2ccccc2n1)NCCC1=CCCCC1
 : i, 0.4%, -0.67
- Cc1cc(C)c2[nH]c(=O)c(C(c3nnnn3C(C)(C)C)N3CCN(C(=O)c4ccco4)CC3)cc2c1 (stereo unspecified)
 : i, -3.6%, -0.89
- O=C(NCc1ccc2c(c1)OCO2)c1ccc(CN2CCOCC2)cc1
 : i, -4.4%, -1.4
- CCOC(=O)c1cnn2c(C(F)(F)F)cc(-c3ccco3)nc12
 : i, -3.1%, 0.34
- CN(C(=O)c1cnccn1)c1nnc(-c2cccnc2)s1
 : i, 6.2%, 2
